AID923: qHTS Assay for Allosteric/Competitive Inhibitors of Caspase-1: Spectroscopic Profiling in AFC Spectral Region. compound fluorescence, AFC spectral region (405/520 nm); almost no hit is shown here. Potency, µM (doses to about 57.5 µM), for inactives: at the highest dose fluorescence increase, usual class: activators. 75,000 compounds, 1.1% hits; active means well fitted activation curve with a large enough effect; inconclusive means small, poorly fitted or top-dose-only effect;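 further: potency means the concentration at half of the fitted maximal effect; 0% is about no effect; scaled to a free AFC standard on each plate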
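Baseline compound fluorescence (AFC region, 405 nm ex/520 nm em) taken from the intercept of kinetic reads with 50 nM caspase-1 and 5 uM Ac-WEHD-AFC; normalized to an on-plate AFC standard curve; compounds titrated up to 57 uM.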
Resorufin fluor: compounds fluorescent in resorufin spectral region; 59,000 compounds, 0.04% hits; AID 588; Compound fluorescence, resorufin region 547/598 nm, buffer; stronger effect = higher value; max dye-equivalent concentration, M; active = above 10 nM dye equivalent; inconclusive = 1 to 10 nM; inactive = 1 nM or less; a few of its hits are not listed in these tables; further: highest value over a series up to 38 µM
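Read-out: intrinsic compound fluorescence at ex 547/em 598 nm after 15 min at RT in pH 8.0 Tris (100 mM). Values expressed as resorufin-equivalent concentration from per-plate standard series.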
TSHR ag: activates the human thyroid stimulating hormone receptor | P16473 | HEK293-CNG-TSHR cells (CNG channel as cAMP sensor), membrane potential dye, cAMP | Potency, µM (series often up to 57.1 µM), for inactives: top-dose activation, actives largely listed as activators | 73,000 compounds, 0.48% hits | AID 926; active = well fitted activation curve of enough size with the parental cells flat; inconclusive = any curve in the parental cells; inactive = parental cells flat and receptor cells flat or falling; further: potency means the concentration at half of the fitted maximal effect; % of control where 0% means no effect; weak receptor curves with flat parental cells got no call and are not listed
Target sequence (P16473 whole entry, looked up): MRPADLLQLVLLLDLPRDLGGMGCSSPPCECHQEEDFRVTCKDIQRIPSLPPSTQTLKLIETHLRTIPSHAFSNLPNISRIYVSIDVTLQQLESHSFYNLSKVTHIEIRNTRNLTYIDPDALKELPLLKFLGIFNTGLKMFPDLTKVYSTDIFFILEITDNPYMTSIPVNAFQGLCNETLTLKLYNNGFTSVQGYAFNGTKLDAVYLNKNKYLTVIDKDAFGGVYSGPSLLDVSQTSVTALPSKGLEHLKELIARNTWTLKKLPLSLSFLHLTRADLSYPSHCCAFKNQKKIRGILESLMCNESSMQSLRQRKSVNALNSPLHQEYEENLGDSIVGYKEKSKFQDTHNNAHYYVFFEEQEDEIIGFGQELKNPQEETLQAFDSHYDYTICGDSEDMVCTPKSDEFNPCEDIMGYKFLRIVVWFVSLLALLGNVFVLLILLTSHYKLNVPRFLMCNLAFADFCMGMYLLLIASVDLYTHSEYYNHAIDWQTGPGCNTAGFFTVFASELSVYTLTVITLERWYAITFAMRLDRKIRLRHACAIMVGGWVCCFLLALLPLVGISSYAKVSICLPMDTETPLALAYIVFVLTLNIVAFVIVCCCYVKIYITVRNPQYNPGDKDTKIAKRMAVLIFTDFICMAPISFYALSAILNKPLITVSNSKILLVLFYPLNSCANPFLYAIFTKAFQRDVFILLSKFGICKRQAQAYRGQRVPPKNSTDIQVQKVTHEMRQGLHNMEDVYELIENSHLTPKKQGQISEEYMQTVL
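HEK 293 cells stably expressing TSHR and a cAMP-gated CNG channel; parental CNG-only cells as counterscreen. Cells preloaded 60 min with membrane potential dye plus 100 uM RO 20-1724, then compound 30 min; fluorescence read at 590 nm.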
A647 fluor: A647 region autofluorescence. max dye-equivalent concentration, M. 59,000 tested, under 10 active. Compound fluorescence, A647 channel (570/671 nm), Tris buffer; active means above 1 µM dye equivalent; inconclusive means 0.1 to 1 µM; inactive means 0.1 µM or less;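 further: values scaled relative to a standard on each plate; highest value over a series up to 38 µM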
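Fluorescence read (570 nm ex, 671 nm em) after 15 min RT incubation of compounds in 100 mM Tris buffer, pH 8.0; values expressed as dye-equivalent concentration against a six-point A647 standard series on each plate.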
A488 autofl: compound fluoresces in the A488 spectral region; max dye equivalency, M; 59,000 compounds, 0.1% hits; compound autofluorescence, A488 spectral region, dye equivalency; stronger effect = higher value; active = above 10 nM dye equivalent; inconclusive = 1 to 10 nM; inactive = 1 nM or less; about half of its hits are not listed in these tables;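 further: highest value over a series up to 38 µM; compound alone in buffer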
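Read-out: relative fluorescence at 480/540 nm, expressed as Alexa 488 dye-equivalent concentration from a six-point A488 standard included per plate. Conditions: 100 mM Tris, pH 8.0; 15 min incubation, room temperature.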
* = called active by the depositor; [ ] = another dose, or the depositor's remark. The list is partial; rates above refer to the full screens.

Screening CCCCCSc1nnc2c(n1)OC(C)N(C(C)=O)c1ccccc1-2 (stereo not drawn) returned AID923 20.1% and TSHR ag -10.9%.
Screening CC(NC(=O)Nc1ccccn1)N1C(=O)C2C3C=CC(C3)C2C1=O (stereo not drawn) returned AID923 0.7%, Resorufin fluor inactive, TSHR ag 0.7%, A647 fluor 3.5e-09 and A488 autofl inactive.
For CCCOC(=O)c1ccc(Oc2cn[nH]c2-c2ccc(OC)cc2O)cc1 the results were AID923 -1.8%, Resorufin fluor inactive, TSHR ag -4.5%, A647 fluor 5.8e-09 and A488 autofl inactive.
CC(=O)O[C@H]1C[C@H]2CC[C@@H]3[C@@H](CC[C@]4(C)[C@H](OC(C)=O)[C@H]([N+]5(C)CCCCC5)C[C@@H]34)[C@]2(C)C[C@H]1[N+]1(C)CCCCC1 was read as AID923 -1.4%[25.7 µM], Resorufin fluor inactive, TSHR ag 20.9%[25.6 µM], A647 fluor 1.04e-08 and A488 autofl inactive.
`COC(=O)[C@@]1(Cc2ccc(F)cc2)[C@H]2c3cc(C(=O)N4CCCC4)n(CCF)c3C[C@H]2CN1C(=O)c1ccccc1` gave AID923 -4.8% and TSHR ag inconclusive.
For CCOC(=O)C(Cc1ccccc1)C(=O)Nc1nccs1 (stereo not drawn) the results were AID923 1.4% and TSHR ag 11.2%.
CCCN(c1ccc(C(C)C)cc1)S(=O)(=O)c1c(C)[nH]c(=O)[nH]c1=O was read as AID923 0.0%, Resorufin fluor inactive, TSHR ag 3.1%, A647 fluor 1e-09 and A488 autofl inactive.
O=C(Nn1cc(C(=O)N2CCN(c3ccccc3F)CC2)c2ccccc2c1=O)c1cnccn1 was read as AID923 -2.8%, Resorufin fluor inactive, TSHR ag 8.4%[11.4 µM], A647 fluor 2.4e-08 and A488 autofl inactive.
For CNC(=O)C1CC(=O)N(c2ccc(F)c(Cl)c2)C1 (stereo not drawn) the results were AID923 -0.4%, Resorufin fluor inactive, TSHR ag 5.6%, A647 fluor 1.6e-09 and A488 autofl inactive.
For CS(=O)(=O)NC1c2cccc3cccc(c23)C1N1CCOCC1 (stereo not drawn) the results were AID923 -0.9%, Resorufin fluor inactive, TSHR ag 4.9%, A647 fluor 3.81e-08 and A488 autofl inactive.
`CCCc1cc2c(c(NC(C)=O)n1)c(=O)oc1ccccc12` gave AID923 -2.7%, Resorufin fluor inactive, TSHR ag 14.6%, A647 fluor 1e-09 and A488 autofl inactive.
`Cc1cc2c(c(=O)o1)C(C13C=CC(CC1)C3)C(C#N)=C(N)O2` (stereo not drawn) gave AID923 6.5%, Resorufin fluor inactive, TSHR ag -2.4%, A647 fluor 2.4e-09 and A488 autofl inactive.
Screening CC1(C)CC2(CCO1)N1CC3(C)CN2CC(C)(C1)C3O (stereo not drawn) returned AID923 -0.3%, Resorufin fluor inactive, TSHR ag inconclusive, A647 fluor 1e-09 and A488 autofl inactive.
For O=C1c2ccccc2C(=O)N1Cc1nn2c(-c3ccc(Cl)cc3)nnc2s1 the results were AID923 -1.7%, Resorufin fluor inactive, TSHR ag 15.6%, A647 fluor 1.4e-09 and A488 autofl inactive.
Screening CC(=O)c1cccc(NC(=O)N2CCCC2C(=O)Nc2cccc(C)c2C)c1 (stereo not drawn) returned AID923 -0.2%, Resorufin fluor inactive, TSHR ag -0.9%, A647 fluor 1.9e-09 and A488 autofl inactive.
For CCc1nn(CC(=O)NCCCN2CCCC2=O)c(=O)c2cc3sccc3n12 the results were AID923 -2.8% and TSHR ag 3.1%.
`COCCCN1C(=O)C(O)=C(C(=O)c2ccco2)C1c1cccc(Br)c1` (stereo not drawn) gave AID923 0.1% and TSHR ag -4.4%[11.4 µM].
COC(=O)Nc1ncc(CN2C(=O)c3ccccc3C2=O)s1 was read as AID923 0.7%, Resorufin fluor inactive, TSHR ag 6.1%, A647 fluor 2.26e-08 and A488 autofl inactive.
For O=C(O)c1cc(NS(=O)(=O)c2cccc3ccccc23)ccc1O the results were Resorufin fluor inactive, TSHR ag 9.8%, A647 fluor 5.1e-09 and A488 autofl inactive.
CC1CCCCC1NC(=O)c1ccc(S(=O)(=O)NCc2ccco2)cc1 (stereo not drawn) was read as AID923 -1.1%, Resorufin fluor inactive, TSHR ag inconclusive, A647 fluor 1.77e-08 and A488 autofl inactive.
`C[C@@H](C(=O)Nc1ccc2ccccc2c1)[C@@H]1C[C@@]1(C)[C@@H](NS(=O)(=O)c1ccc(-c2ccccc2)cc1)c1ccccc1` gave AID923 0.9% and TSHR ag 5.9%.
Screening O=C(OCN1C(=O)c2ccccc2C1=O)c1ccc2c(=O)n3c(nc2c1)CCC3 returned AID923 0.4%, Resorufin fluor inactive, TSHR ag 2.1%, A647 fluor 1e-09 and A488 autofl inactive.
For Cc1cccc(OCC(=O)N(Cc2cccs2)C2CCS(=O)(=O)C2)c1 (stereo not drawn) the results were AID923 0.4%, Resorufin fluor inactive, TSHR ag -2.1%, A647 fluor 1e-09 and A488 autofl inactive.
For Nc1nnnn1CC(=O)OCc1cccc(Br)c1 the results were Resorufin fluor inactive, A647 fluor 3.57e-08 and A488 autofl inactive.
COc1ccc(C(=O)CSc2nnc(-c3ccoc3C)n2CC2CCCO2)cc1 (stereo not drawn) was read as AID923 -1.9%, Resorufin fluor inactive, TSHR ag 18.6%, A647 fluor 2.05e-08 and A488 autofl inactive.
`O=S(=O)(c1ccccc1)N1CCC(N2CCN(c3ccccc3)CC2)CC1` gave Resorufin fluor inactive, A647 fluor 2.1e-09 and A488 autofl inactive.
`O=C(O)c1ccc(NC(=O)C2CC=CCC2C(=O)O)cc1` (stereo not drawn) gave AID923 3.2% and TSHR ag -0.8%.
Screening CC(=O)Nc1cc(C(=O)N2CCCC2)ccc1S(=O)(=O)c1ccc(C)cc1 returned AID923 0.5%, Resorufin fluor inactive, TSHR ag 0.1%, A647 fluor 1.76e-08 and A488 autofl inactive.
C=C(C)Cn1c(N2CCCC2)nc2c1c(=O)[nH]c(=O)n2C was read as AID923 -1.3% and TSHR ag -9.2%.
COC1=C(OC)c2ccccc2C(C(=O)O)N/C1=C(/C)Nc1ccncc1 (stereo not drawn) was read as AID923 -1.1%, Resorufin fluor inactive, TSHR ag 0.1%[11.4 µM], A647 fluor 4.2e-08 and A488 autofl inactive.

Among those listed so far, 3 have a COOH group.
For O=C(O)c1cc(NS(=O)(=O)c2cccc3ccccc23)ccc1O the results were Resorufin fluor inactive, TSHR ag 9.8%, A647 fluor 5.1e-09 and A488 autofl inactive.
`O=C(O)c1ccc(NC(=O)C2CC=CCC2C(=O)O)cc1` (stereo not drawn) gave AID923 3.2% and TSHR ag -0.8%.
COC1=C(OC)c2ccccc2C(C(=O)O)N/C1=C(/C)Nc1ccncc1 (stereo not drawn) was read as AID923 -1.1%, Resorufin fluor inactive, TSHR ag 0.1%[11.4 µM], A647 fluor 4.2e-08 and A488 autofl inactive.

New compounds follow.
CCOc1ccc(C(C)=O)cc1N1C(=O)C2C3C=CC(O3)C2C1=O (stereo not drawn) was read as AID923 0.9%, Resorufin fluor inactive, TSHR ag 4.9%, A647 fluor 1e-09 and A488 autofl inactive.
Screening O=C(NS(=O)(=O)c1ccc(NC(=O)C2CCCO2)cc1)c1ccccc1 (stereo not drawn) returned AID923 -0.1%, Resorufin fluor inactive, TSHR ag 1.1%, A647 fluor 5.1e-09 and A488 autofl inactive.
For COCCn1c(=O)c(-c2cc(F)cc(F)c2)nc2cncnc21 the results were AID923 7.7%, Resorufin fluor inactive, TSHR ag 5.6%, A647 fluor 1e-09 and A488 autofl inactive.
CC(=O)c1c(C)[nH]c(C(=O)CSc2nnc(C3CCCCC3)n2N)c1C was read as AID923 -1.6%, Resorufin fluor inactive, TSHR ag -2.7%, A647 fluor 3.1e-09 and A488 autofl inactive.
Screening CC(=O)NCCc1ccc(O)c(O)c1 returned AID923 -0.9%, Resorufin fluor inactive, TSHR ag 0.4%, A647 fluor 5.9e-09 and A488 autofl inactive.
For CO[C@@H]1COC(=O)C/C=C\[C@H](C)[C@H](OC)COC(=O)[C@H]2CCCN2C(=O)C/C=C\[C@H]1C the results were AID923 -0.6%[11.5 µM] and TSHR ag -3.1%[11.4 µM].
For COc1ccc(CCNC2CC(C)N(C)CC2C)cc1OC (stereo not drawn) the results were Resorufin fluor inactive, A647 fluor 1.2e-08 and A488 autofl inactive.
`C=CCn1c(SC(C)C(=O)NC2(C#N)CCCCC2)nnc1-c1ccc(OC)cc1` (stereo not drawn) gave AID923 -0.9%, Resorufin fluor inactive, TSHR ag inconclusive, A647 fluor 7.1e-09 and A488 autofl inactive.
Screening Cc1nc2c(c(=O)n1CCC1=CCCCC1)c1nc3ccccc3nc1n2/N=C/c1ccco1 returned AID923 4.1%, Resorufin fluor inactive, TSHR ag -46.0%[inhibitor], A647 fluor 1.5e-09 and A488 autofl inactive.
CCc1nc(N)c(C#N)c(-c2ccc(O)c(OC)c2)c1C was read as AID923 0.7%, Resorufin fluor inactive, TSHR ag inconclusive, A647 fluor 6.3e-09 and A488 autofl inactive.
`CC1(C)CC(=O)N(CC(=O)NCc2ccc(F)cc2)c2ccccc2S1(=O)=O` gave AID923 -0.3% and TSHR ag 0.6%.
O=S1(=O)CCN(Cc2ccccn2)CC1 was read as AID923 -1.5%[11.5 µM], Resorufin fluor inactive, TSHR ag 1.0%[11.4 µM], A647 fluor 3.8e-09 and A488 autofl inactive.
Screening CCc1ccc(OCC(=O)NCc2ccco2)c(Br)c1 returned AID923 -3.5%, Resorufin fluor inactive, TSHR ag 21.7%, A647 fluor 1.69e-08 and A488 autofl inactive.
Screening COCCNC(=O)CN1CCN(Cc2cccc(Cl)c2)C1=O returned AID923 0.5% and TSHR ag 2.6%.
COC(=O)Cc1cc(=O)[nH]c(Nc2nc3ccccc3o2)n1 was read as AID923 -1.0% and TSHR ag -0.1%[11.4 µM].
For COc1ccc(C(=O)Nc2ccccc2C(=O)NCCCn2ccnc2)cc1 the results were AID923 -0.3% and TSHR ag 19.4%.
`Cc1cc(NC(=O)CSc2nnc3c(C)cc4c(C)ccc(C)c4n23)no1` gave AID923 -0.8%, Resorufin fluor inactive, TSHR ag -6.4%[11.4 µM], A647 fluor 2.3e-09 and A488 autofl inactive.
Screening COc1ccc(NC(=O)c2ccc(Cl)c(S(=O)(=O)N3CCc4ccccc4C3)c2)cn1 returned AID923 -2.1%, Resorufin fluor inactive, TSHR ag inconclusive, A647 fluor 2.26e-08 and A488 autofl inactive.
For Oc1ccc(Cl)cc1CNc1ccc(Br)cn1 the results were AID923 0.1%, Resorufin fluor inactive, TSHR ag -18.8%, A647 fluor 6.4e-09 and A488 autofl inactive.
COc1ccc2c(=O)c3c(=O)n(Cc4ccco4)c(-c4cc(OC)c(OC)c(OC)c4)nc3oc2c1 was read as AID923 0.2%, Resorufin fluor inactive, TSHR ag 1.1%, A647 fluor 7.9e-09 and A488 autofl inactive.
Screening O=C(O)c1cccc(S(=O)(=O)Nc2ccc3oc(=O)sc3c2)c1 returned AID923 0.1%, Resorufin fluor inactive, TSHR ag inconclusive, A647 fluor 1e-09 and A488 autofl inactive.
`CNC(=O)[C@H]1O[C@H](n2cnc3c(NCc4cccc(I)c4)ncnc32)[C@@H](O)[C@@H]1O` gave AID923 -1.4% and TSHR ag 26.7%.
`CCCc1nnc(NC(=O)c2ccncc2)s1` gave AID923 0.6% and TSHR ag 0.1%[11.4 µM].
`c1ccc(C2NCCn3cccc32)cc1` (stereo not drawn) gave AID923 0.5% and TSHR ag -14.2%.
`C[N+](C)(C)C/C=C1/COCO1` gave AID923 -0.1%, Resorufin fluor inactive, TSHR ag 12.8%[11.4 µM], A647 fluor 1e-09 and A488 autofl inactive.
Screening COc1cccc(Cn2c(=O)cnc3cnc(OCc4ccccc4)nc32)c1 returned AID923 2.7%, Resorufin fluor inactive, TSHR ag inconclusive, A647 fluor 1e-09 and A488 autofl inactive.

Screening results (PubChem)
